# Assay outcomes: PubChem BioAssay, National Center for Advancing Translational Sciences (NCATS)
# GLA inh pH 4.5: blocks human alpha-galactosidase A at pH 4.5; activity change, negative = inhibition, % at 105 µM; P06280; purified enzyme, 4-MU-alpha-Gal fluorescence, pH 4.5; AID 1467; 230,000 tested, under 10 active; inconclusive = small, poorly fitted or top-dose-only inhibition, or a rising curve; inactive = flat fitted curve, though single readings scatter; no compound was filed as active;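 note: 0% = full activity with enzyme and -100% = basal without enzyme; dose as in the result columns while the protocol names 77 µM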
# Rango complex inh: prevents formation of the Rango-importin beta complex; Rango CFP/YFP FRET sensor + importin beta, 45 min; Potency, µM (doses to about 92.2 µM), inactives show at the highest dose inhibition of complex formation; hit rate 0.031% among 340,000; active = rising FRET ratio curve, often small or poorly fitted; inconclusive = mostly compound fluorescence or quenching in the first reads; inactive = flat curves in all reads;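 note: potency is the fitted concentration of half-maximal effect; 0% = DMSO wells and 100% = buffer wells lacking importin beta; nearly all actives have a fitted effect of over 15% in size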
# Target sequence (Q14974 whole entry, looked up): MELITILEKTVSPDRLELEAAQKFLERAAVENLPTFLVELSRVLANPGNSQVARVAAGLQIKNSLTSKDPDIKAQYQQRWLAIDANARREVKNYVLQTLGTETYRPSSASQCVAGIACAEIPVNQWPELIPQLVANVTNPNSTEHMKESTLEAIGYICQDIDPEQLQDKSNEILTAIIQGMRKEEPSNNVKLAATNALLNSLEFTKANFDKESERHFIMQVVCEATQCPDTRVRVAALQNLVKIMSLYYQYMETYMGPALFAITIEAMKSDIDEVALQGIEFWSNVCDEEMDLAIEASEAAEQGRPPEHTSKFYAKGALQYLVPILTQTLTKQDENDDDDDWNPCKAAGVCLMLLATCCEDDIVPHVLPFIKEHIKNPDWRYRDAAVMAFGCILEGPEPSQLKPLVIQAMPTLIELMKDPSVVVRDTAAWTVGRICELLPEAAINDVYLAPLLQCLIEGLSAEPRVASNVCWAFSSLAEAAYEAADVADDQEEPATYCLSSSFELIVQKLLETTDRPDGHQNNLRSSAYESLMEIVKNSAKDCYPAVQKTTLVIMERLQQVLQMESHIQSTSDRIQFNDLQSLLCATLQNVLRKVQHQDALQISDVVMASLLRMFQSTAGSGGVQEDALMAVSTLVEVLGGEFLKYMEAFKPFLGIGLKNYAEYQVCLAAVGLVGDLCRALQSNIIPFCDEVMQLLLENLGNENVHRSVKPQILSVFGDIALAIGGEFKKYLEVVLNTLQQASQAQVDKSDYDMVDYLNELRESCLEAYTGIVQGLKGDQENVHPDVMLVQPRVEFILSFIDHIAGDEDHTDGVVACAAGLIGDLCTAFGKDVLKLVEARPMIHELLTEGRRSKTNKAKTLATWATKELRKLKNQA
#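 FRET biosensor Rango (snurportin 1 IBB between N-terminal EYFP and C-terminal Cerulean), 50 nM in PBS/1 mM DTT/0.02% Tween-20/0.1% BSA, preincubated 5 min RT with compound; 0.125 microM importin beta added, 45 min RT, CFP/YFP FRET ratio read.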
# Rango dissoc inh: prevents RanGTP from dissociating the Rango-importin beta complex. O95149+P62826. Biochemical FRET Rango-importin beta, RanGTP-induced dissociation. Potency, µM (highest dose often 46.1 µM), for inactives: top-dose activity change, negative = inhibition. hit rate 0.071% among 340,000. AID 540253; active means falling FRET ratio curve, often poorly fitted, with flat reads before Ran was added; inconclusive means other falling curves, or compound fluorescence or quenching; inactive means flat or rising ratio curve;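 note: potency is the fitted concentration of half-maximal effect; % of control where 0% means no effect; nearly all actives have a fitted effect of over 45% in size; -100% = wells without RanGTP and RCC1; the record marks most hits as doubtful in a second field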
#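 Two FRET readings bracket the reaction: one 5 min after compound meets Rango–importin beta, another 45 min after RanGTP-RCC1 (0.6 uM Ran, 0.2 uM RCC1, 2 mM GTP) is added. Only the second defines inhibition.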
# miR-21 reporter: miR-21 reporter, rising signal; HeLa miR-21 FLuc reporter, luciferase, 48 h; Potency, µM (doses to about 38.3 µM), inactives show at the top dose reporter change, positive = more light; 340,000 tested, under 10 active; AID 2288; active = well fitted rising curve with a large enough effect; inconclusive = small, poorly fitted or top-dose-only effect; inactive = no such curve, though single readings can be large or run the other way;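 note: % of control where 0% means no effect; miR-21 action dims this reporter so a rising signal means less miR-21 action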
#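 Using DMEM plus 10% FBS, HeLa miR-21-FLuc cells are incubated with test compounds (final up to about 40uM) for 48 hours; firefly luciferase signal is then imaged following reagent-mediated lysis.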
# * hit, by the source's call; ? = inconclusive; . = not tested or not shown; & = joins results of further samples.
SMILES,GLA inh pH 4.5,Rango complex inh,Rango dissoc inh,miR-21 reporter
N#Cc1ccc(C(=O)Nc2ccc3ccccc3c2)cc1,.,0.3%,-13%,-59%
CCn1c(-c2c(Cl)c(C)nn2C)n[nH]c1=S,11,5.5%,28%,-1%
CCN(CCO)Cc1csc2ccc(Cl)cc12,0,-2.1%,-6%,-1%
CCOc1ccccc1CN1CCNC(=O)C1CC(=O)NCc1cc(C)n(C)n1 (centres undefined),.,-1.7%,1%,0%
CNc1nc(OCCNC(=O)Nc2ccccc2)nc(N2CCOCC2)n1,4,-5.1%,34%,-8%
O=C(COC(=O)c1cccnc1Cl)c1cccc(Cl)c1,3,-0.1%,-6%,-14%
CCCc1cc(C(=O)N2CCC(N3CCC(C(=O)NC(C)C)CC3)CC2)n(C)n1,-4,-0.2%,-8%,0%
Cc1cc(NCc2ccccn2)n2nc(C)c(-c3ccccc3)c2n1,5,1.3%,-9%,26%
O=C(Nc1nc2cc3c(cc2s1)OCCO3)c1ccco1,.,0.4%,3%,?
CC1CN(C(=O)c2cc3cc(Cl)ccc3[nH]2)CC(C)O1 (centres undefined),.,-0.4%,0%,-7%
CCN(C(=O)COC(=O)c1c(NC(C)=O)sc(C)c1C)C1CCS(=O)(=O)C1 (centres undefined),-5,?,34%,-3%
Cc1nc(NCCc2ccccc2F)c(C#N)c(C)c1[N+](=O)[O-],11,0.2%,11%,-1%
O=C(O)c1cnc(-c2ccccc2)nc1Sc1cccc(Cl)c1,-11,?,-4%,-7%
COC(=O)Cc1nc2c(N)nc(N)nc2[nH]c1=O,.,?,?,.
Cc1ccc(CNC(=O)COC(=O)c2ccc(Br)cc2)cc1,-1,-3.5%,14%,1%
CCCC(CCC)C(=O)Oc1cc(C)[nH]c(=O)c1[N+](=O)[O-],-1,1.2%,3%,-1%
CN(C)c1ncnc2c1ccn2C1OC(CO)C(O)C1O (centres undefined),.,-0.4%,7%,.
O=C(CN1CCOc2ccccc21)NCc1ccc(F)cc1,8,-0.1%,-7%,-14%
COc1ccc(CNc2ccc(C)c(C)c2)c(OC)c1OC,-2,-1.7%,13%,-7%
C=CCC(C(=O)c1ccccc1)[N+](C)(C)CC=C (centres undefined),-24,1.7%,-5%,1%

# Single records (already shown). Screens in order: GLA inh pH 4.5, Rango complex inh, Rango dissoc inh, miR-21 reporter
# CN(C)c1ncnc2c1ccn2C1OC(CO)C(O)C1O (centres undefined) is listed as ., -0.4%, 7%, .
# CCN(C(=O)COC(=O)c1c(NC(C)=O)sc(C)c1C)C1CCS(=O)(=O)C1 (centres undefined) is listed as -5, ?, 34%, -3%

# (next part)
SMILES,GLA inh pH 4.5,Rango complex inh,Rango dissoc inh,miR-21 reporter
COCCCNC(=O)CC1C[C@H](C(=O)N2CCCCC2)[C@@]2(CCc3ccccc3)c3[nH]c4ccccc4c3CCN2C1=O (some centres undefined),.,-1.1%,-4%,.
CCCc1cc(=O)oc2cc(C)cc(OC(C)C(=O)NCc3ccncc3)c12 (centres undefined),.,0.5%,9%,-9%
Cc1ccc(NC(=O)CN(C)C(=O)CCCN2C(=O)c3ccccc3C2=O)cc1,10,0.3%,3%,-4%
Clc1ccc(/C=N/NC(=Nc2ccccc2)c2ccccn2)c(Cl)c1,1,-1.0%,33%,-53%
O=C(Nc1ccccc1Cl)N1CCSc2ccccc21,13,-0.8%,-8%,4%&-3%
CC/C(=N/NC(=O)CCC(=O)Nc1ccccc1OC)c1ccccc1,6,-0.9%,-17%,-2%
CCC1(c2ccc(C)cc2)NC(=O)N(CC(=O)Nc2cccc(S(=O)(=O)N3CCCC3)c2)C1=O (centres undefined),.,5.8%,11%,.
Cc1cc(C)n(C2CC(=O)N(c3ccccc3)C2=O)n1 (centres undefined),6,-6.3%,-3%,-19%
CC(C)CN1CCC(=O)N(CCSc2ccc(Br)cc2)CC1,-11,-0.7%,9%,9%
COc1ccc(CCn2c(SCC(=O)Nc3cc(C)on3)nc3ccsc3c2=O)cc1OC,7,5.8%,2%,0%
CCOc1ccc(C(=O)NCC(=O)N2CCN(C/C=C/c3ccccc3)CC2)cc1OCC,.,2.2%,-7%,.
CCOC(=O)N1CCN(c2ncnc3c2cnn3-c2ccc(Cl)cc2)CC1,-8,.,.,-16%
COC(=O)CN(c1nc(C)c(Cl)c(OC)n1)S(=O)(=O)c1ccc(C)cc1,-1,-2.0%,1%,-6%
CCOC(=O)C1=C(c2ccccc2)N=C2SCC(=O)N2C1c1ccc2c(c1)OCO2 (centres undefined),-3,-0.2%,-13%,0%
COC(=O)c1[nH]c2cccc(OC)c2c1NC(=O)C(C)N1CCC(C)CC1 (centres undefined),-1,-0.3%,4%,0%
O=C(NCc1ccco1)C(c1ccncc1)N(CCC1=CCCCC1)C(=O)Cn1nnc2ccccc21 (centres undefined),3,1.9%,7%,-5%
COc1cc(C(=O)OCC(=O)c2cc(C)n(CC3CCCO3)c2C)ccc1OCC(=O)N1CCOCC1 (centres undefined),.,?,-5%,.
Cc1cc(Br)ccc1NC(=O)CN(C)C(=O)CN1C(=O)NC2(CCCC2)C1=O,.,1.7%,28%,.
Cc1ccc(NC(=O)COC(=O)CCc2ccc(S(=O)(=O)N3CCOCC3)cc2)cc1C,1,-0.4%,14%,-3%
Cc1cccc(COc2ccc(/C(O)=C3\C(=O)C(=O)N(CCN(C)C)C3c3ccncc3)cc2)c1 (centres undefined),-16,?,-5%,-9%
Clc1ccc(CSCCc2ccncc2)cc1,-7,-5.2%,26%,11%
CC1CC1C(=O)Nc1cc(S(=O)(=O)N2CCOCC2)ccc1N1CCCC1 (centres undefined),1,-2.2%,0%,-2%
Cc1ccc(SCC(=O)c2ccc[nH]2)cc1,-6,3.8%,-11%,-61%
COc1ccc(-c2cnnc(N/N=C/C(C)=C/c3ccccc3)n2)cc1,2,.,.,-10%
NC(=O)N1CCc2ccccc21,7,-1.1%,6%,-2%
Cc1nnc(SCC(=O)Nc2ccc(F)cc2)n(N)c1=O,.,-2.7%,-4%,3%
CCCCC(=O)Nc1ccc(C(=O)c2ccccc2)cc1,-17,0.0%,5%,-39%
CCOC(=O)c1ccccc1NC(=O)c1ccccc1N(C)S(C)(=O)=O,4,?,10%,-4%
COc1cc(NC(=O)Cc2cccc3ccccc23)c(C(=O)O)cc1OC,.,-2.0%,6%,-2%
CCOC(=O)c1[nH]c(C)c(C(=O)NCCc2ccc(OC)cc2)c1C,-8,-2.0%,7%,-2%
O=S(=O)(Nc1cccnc1)c1ccc(C2CCCCC2)cc1,0,-0.8%,0%,5%
C=C(C)C(=O)Nc1cccc(C2=NOC3(C2)C[C@@H](C(N)=O)N(C(=O)[C@H]2CCC(=O)N2)C3)c1 (some centres undefined),-2,-0.7%,7%,6%
COc1ccc(-c2csc(NC(=O)CSc3n[nH]c(N)n3)n2)cc1,-2,1.1%,0%,7%
O=c1c2c([nH]c3ccccc13)CCCCC2,1,-0.3%,-9%,1%
CCNC(=O)N1CCCC(C(=O)c2ccc(OC)c(OC)c2)C1 (centres undefined),3,-0.1%,12%,-2%
CC1CN(Cc2c(O)ccc3c2oc(=O)c2ccccc23)CC(C)O1 (centres undefined),2,2.6%,-23%,21%
O=C(CSc1nnc(-c2ccccc2Br)o1)Nc1nncs1,12,7.1%,-17%,-14%
Cc1cc(C)c(NC(=S)N(Cc2cccnc2)Cc2ccco2)c(C)c1,-1,0.4%,7%,4%
Nc1ccc(C2(c3ccc(N)cc3)C(=O)Nc3ccccc32)cc1,3,-1.8%,-1%,-5%
COC(=O)c1sccc1NC(=O)CSc1ccccc1N,4,0.4%,3%,-17%
CCOC(=O)N1CCC2(CC1)C(C#N)=C(N)OC1=C2C(=O)CC(C)C1 (centres undefined),0,-0.8%,2%,-6%
Cc1ccc(-n2c(Cc3cccs3)nnc2SCC(=O)OC(C)C)cc1,-3,-0.4%,-9%,-2%
COc1ccc(CCNC(=O)c2c(C)nc3ccccn23)cc1OC,5,4.3%,-11%,-2%
CCOP(=O)(OCC)C(NC(=O)Nc1ccccc1)C(N)=O (centres undefined),-15,2.6%,1%,1%
COc1ccc(NC(C)=O)c([N+](=O)[O-])c1[N+](=O)[O-],.,-1.2%,0%,.
CCOc1ccc(C(=O)NCC(=O)OCc2c(C)noc2C)cc1OCC,4,-1.7%,2%,3%
c1ccc(C2CC(c3cccs3)=NN2c2ccccc2)cc1 (centres undefined),?,?,?,-12%
COC(=O)CCCC1=CC2=CC(=O)C(C)(OC(=O)c3cccs3)C(=O)C2=CN1Cc1ccccc1 (centres undefined),-2&-23,-3.0%,-13%,5%
CCCCN1C(=O)c2ccc(C(=O)Nc3ccccc3N3CCOCC3)cc2C1=O,-10,0.5%,-8%,0%
CC(C)(C)N(Cc1ccccc1)C(=O)CSc1nnc(CNc2ccc(F)cc2)o1,2,-0.6%,2%,11%
# More entries follow.
SMILES,GLA inh pH 4.5,Rango complex inh,Rango dissoc inh,miR-21 reporter
COC(=O)c1sc(NC(=O)Cc2cccs2)nc1C,3,-0.6%,-11%,-39%
COc1cc(S(=O)(=O)Nc2ccc(Br)cc2)ccc1N,-1,-2.7%,2%,8%
COc1ccc(C2=NN(C(=O)CN3CCCCC3)C(c3ccc(C)cc3)C2)cc1 (centres undefined),0,-1.1%,-16%,1%
C=CCNc1nc(Cl)ncc1F,-4,3.1%,-6%,-5%
COC(=O)c1ccc(NC(=O)[C@H](C)NC(N)=O)cc1,9,-1.9%,-20%,-2%
O=C(C1CCC(C(=O)N2CCc3ccccc32)CC1)N1CCc2ccccc21 (centres undefined),-1,-2.8%,1%,-1%
CN(CC(N)=O)S(=O)(=O)c1ccc(F)cc1,-3,?,1%,-11%
Cc1ccc(S(=O)(=O)CC(=O)c2ccccc2)cc1,2,-4.3%,1%,-11%
Cc1cc(/C=C(/C#N)c2nc3ccccc3[nH]2)c(C)n1-c1cc(C(=O)O)cc(C(=O)O)c1,-6,?,?,-2%
COCCN(C(=O)c1ccc(C)c(S(=O)(=O)N2CCOCC2)c1)c1c(N)n(CC(C)C)c(=O)[nH]c1=O,.,-5.8%,-17%,.
CCCCC(=O)NC1(C(F)(F)F)C(=O)Nc2c1c(=O)[nH]c(=O)n2Cc1ccco1 (centres undefined),-3,-4.4%,2%,-2%
CCC(CC)c1nnc(NC(=O)C2CCN(C(=O)c3ccco3)CC2)s1,.,1.1%,5%,0%
CCC(C(=O)Nc1cc(OC)c(NC(=O)c2ccccc2)cc1OC)c1ccccc1 (centres undefined),.,-2.3%,-1%,2%
COc1ccc2c(c1OC)C(=O)N1C2SC(C)(C)[C@H]1C(=O)NC(C)C (some centres undefined),.,-0.4%,12%,-1%
CCN(CC)CC(O)COc1ccc2c(c1)OCO2 (centres undefined),-4,4.4%,-2%,-4%
CCC(C)N1CC(=O)N2C(c3ccc(OC)cc3OC)c3[nH]c4ccccc4c3C[C@H]2C1=O (some centres undefined),.,-1.3%,-2%,-6%
CCSc1cnnc2ccccc12,.,2.5%,-13%,.
O=C(NCCOc1ccc(Cl)cc1)c1ccco1,.,-0.3%,8%,-17%
O=C(Nc1ccc(S(=O)(=O)N2CCc3ccccc3C2)cc1)C1CCCO1 (centres undefined),-3,-7.4%,11%,-1%

# 7 entries from above, arranged by molar mass, falling:
SMILES,GLA inh pH 4.5,Rango complex inh,Rango dissoc inh,miR-21 reporter
CCC1(c2ccc(C)cc2)NC(=O)N(CC(=O)Nc2cccc(S(=O)(=O)N3CCCC3)c2)C1=O (centres undefined),.,5.8%,11%,.
CCN(C(=O)COC(=O)c1c(NC(C)=O)sc(C)c1C)C1CCS(=O)(=O)C1 (centres undefined),-5,?,34%,-3%
CCC(CC)c1nnc(NC(=O)C2CCN(C(=O)c3ccco3)CC2)s1,.,1.1%,5%,0%
Cc1ccc(CNC(=O)COC(=O)c2ccc(Br)cc2)cc1,-1,-3.5%,14%,1%
Cc1cc(NCc2ccccn2)n2nc(C)c(-c3ccccc3)c2n1,5,1.3%,-9%,26%
Cc1nnc(SCC(=O)Nc2ccc(F)cc2)n(N)c1=O,.,-2.7%,-4%,3%
CC1CN(C(=O)c2cc3cc(Cl)ccc3[nH]2)CC(C)O1 (centres undefined),.,-0.4%,0%,-7%

# The list is partial (hit frequency here may not be typical).
